GLA inh pH 4.5 – blocks human alpha-galactosidase A at pH 4.5; purified enzyme, 4-MU-alpha-Gal fluorescence, pH 4.5; activity change, negative = inhibition, % at 105 µM; 230,000 tested, under 10 active; AID 1467; inconclusive = small, poorly fitted or top-dose-only inhibition, or a rising curve; inactive = flat fitted curve, though single readings scatter; no compound was filed as active;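 also: 0% = full activity with enzyme and -100% = basal without enzyme; dose as in the result columns while the protocol names 77 µM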
Rango dissoc inh – prevents RanGTP from dissociating the Rango-importin beta complex; O95149+P62826; Biochemical FRET Rango-importin beta, RanGTP-induced dissociation; Potency, µM (doses to about 46.1 µM), for inactives: at the highest dose activity change, negative = inhibition; hit rate 0.071% among 340,000; AID 540253; active means falling FRET ratio curve, often poorly fitted, with flat reads before Ran was added; inconclusive means other falling curves, or compound fluorescence or quenching; inactive means flat or rising ratio curve;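 also: potency is read from the fitted curve at half-maximal effect; % of control where 0% means no effect; nearly all actives have a fitted effect of over 45% in size; -100% = wells without RanGTP and RCC1; the record marks most hits as doubtful in a second field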
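Compounds sat 5 min at room temperature with 0.1 uM Rango biosensor plus 0.25 uM importin beta, then FRET pre-read. RanGTP-RCC1 (0.6 uM Ran, 2mM GTP, 0.2 uM RCC1) added for 45 min, and the CFP/YFP post-read measured blocked complex dissociation.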
miR-21 FLuc – raises the signal of a miR-21 reporter | HeLa miR-21 FLuc reporter, luciferase, 48 h | Potency, µM (top dose mostly 38.3 µM), inactives show at the top dose reporter change, positive = more light | 340,000 tested, under 10 active | AID 2288; active = well fitted rising curve with a large enough effect; inconclusive = small, poorly fitted or top-dose-only effect; inactive = no such curve, though single readings can be large or run the other way;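 also: % of control where 0% means no effect; miR-21 action dims this reporter so a rising signal means less miR-21 action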
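HeLa cells stably expressing CMV-driven firefly luciferase with a downstream miR-21 binding sequence, endogenously expressing miR-21, were treated with titrations (up to about 40uM final) for 48 hours at 37 degree Celsius. Luciferase luminescence was read after lysis.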
Rango-impB inh – inhibitors of Rango-importin beta complex formation; AID 540263; Q14974; Potency, µM (highest dose often 92.2 µM), for inactives: at the highest dose inhibition of complex formation; hit rate 0.031% among 340,000; Rango CFP/YFP FRET sensor + importin beta, 45 min; active = rising FRET ratio curve, often small or poorly fitted; inconclusive = mostly compound fluorescence or quenching in the first reads; inactive = flat curves in all reads;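 also: potency is read from the fitted curve at half-maximal effect; 0% = DMSO wells and 100% = buffer wells lacking importin beta; nearly all actives have a fitted effect of over 15% in size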
Target sequence (Q14974 whole entry, looked up): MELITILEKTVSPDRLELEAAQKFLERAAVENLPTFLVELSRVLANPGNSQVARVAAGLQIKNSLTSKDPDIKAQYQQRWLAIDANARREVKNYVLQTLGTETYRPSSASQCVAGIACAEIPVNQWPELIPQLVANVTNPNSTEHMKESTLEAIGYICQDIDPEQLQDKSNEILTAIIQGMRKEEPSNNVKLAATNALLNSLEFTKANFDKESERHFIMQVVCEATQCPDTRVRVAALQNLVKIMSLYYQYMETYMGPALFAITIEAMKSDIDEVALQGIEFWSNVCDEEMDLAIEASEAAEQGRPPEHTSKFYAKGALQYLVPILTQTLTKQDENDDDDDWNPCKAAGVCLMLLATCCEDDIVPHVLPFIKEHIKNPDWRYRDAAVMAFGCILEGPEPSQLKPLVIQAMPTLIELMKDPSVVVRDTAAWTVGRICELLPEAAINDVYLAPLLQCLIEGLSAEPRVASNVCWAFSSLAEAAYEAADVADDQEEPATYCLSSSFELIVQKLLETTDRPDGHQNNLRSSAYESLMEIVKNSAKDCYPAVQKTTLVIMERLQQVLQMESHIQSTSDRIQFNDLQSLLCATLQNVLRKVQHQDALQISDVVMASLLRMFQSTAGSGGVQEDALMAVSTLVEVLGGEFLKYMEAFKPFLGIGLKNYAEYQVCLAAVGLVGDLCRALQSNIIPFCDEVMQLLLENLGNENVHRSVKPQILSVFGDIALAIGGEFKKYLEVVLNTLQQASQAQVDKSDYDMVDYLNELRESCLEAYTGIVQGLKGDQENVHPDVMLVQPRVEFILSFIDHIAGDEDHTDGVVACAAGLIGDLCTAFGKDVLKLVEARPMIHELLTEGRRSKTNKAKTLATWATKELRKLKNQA
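Inhibition scored from the CFP 486 nm/YFP 530 nm FRET ratio 45 min after adding 0.125 microM importin beta to 50 nM Rango biosensor preincubated 5 min with compound (room temperature, PBS with DTT, Tween-20, BSA). No-importin wells as positive control.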
Active calls of the source: *; ? = inconclusive; · = no result given; & = joins results of further samples. These rows are one share of the data; the hit share may differ from the screen's.

SMILES	GLA inh pH 4.5	Rango dissoc inh	miR-21 FLuc	Rango-impB inh
O=C(OCc1ccccc1)/C(=C/c1cccc2ccccc12)NC(=O)c1ccccc1	-6.1	3.9%	-5.4%	1.8%
CC(C)(C)c1nc(SCC(=O)NCc2ccco2)c2ccccc2n1	-12.1	-16.5%	-19.6%	-2.0%
COCC(=O)Oc1c(S(=O)(=O)c2ccccc2)c(C)nn1C(C)(C)C	·	6.3%	-1.1%	1.9%
N#Cc1ccc(-c2ccccc2)nc1SCCN1CCOCC1	0.2	-24.3%	-15.5%	?
Cc1ccccc1NC(=S)NNC(=O)c1ccncc1	0.5	1.9%	-3.9%	5.2%
COc1ccc(NC(=S)N2CCC(N(C)CC3CCCO3)CC2)cc1 (stereo unspecified)	6.2	-3.9%	-10.6%	3.5%
NC(=S)N/N=C/c1c[nH]c2ccc(OCc3ccccc3)cc12	·	12.5%	17.3%	0.4%
COc1ccc(F)cc1C(=O)C1CCCN(Cc2ccc(Oc3ncccn3)cc2)C1 (stereo unspecified)	0.2	2.7%	3.1%	-3.2%
Cc1ccc(-n2c(CCC(=O)O)ccc2-c2cccs2)cc1C	18.2	-21.8%	-8.9%&-16.8%	?
Cc1cc(NS(=O)(=O)c2ccc(NC(=O)C(C)Oc3cc(C)c(Cl)c(C)c3)cc2)no1 (stereo unspecified)	·	11.5%	-13.3%	-1.7%
COC(=O)C1CCN(C(=O)Cn2nnc(-c3cccc(F)c3)n2)CC1	·	0.3%	-0.9%	-2.3%
CC(C)CCN1CC(C(=O)N2CCN(c3ccc(F)cc3)CC2)CC1=O (stereo unspecified)	-1.7	6.4%	0.6%	1.5%
O=C(NCCS(=O)(=O)N1CCN(c2ccccc2)CC1)C1CCCC1	·	-1.0%	·	2.6%
O=C(O)/C(=C\c1ccc(C(F)(F)F)cc1)c1ccc(S(=O)(=O)N2CCCC2)s1	·	0.1%	·	5.4%
CCOc1cccc(C(=O)NNC(=O)CCC(=O)O)c1	-6.9	7.8%	-0.8%	-0.7%
CCC(=O)N1CCc2cc(Br)cc(S(=O)(=O)CCC(=O)N(CC)CC)c21	-5.7	21.0%	-0.4%	-2.9%
COc1ccc(OC)c(CNCCNC(=O)c2ccco2)c1	-6.0	·	-5.6%	·
N/C(=N\OC(=O)c1cccc(Cl)c1)c1cccnc1	9.2	-13.0%	-43.8%	-0.6%
O=C(COC(=O)C1CC2CCCC(C1)C2=O)NC(=O)c1ccccc1 (stereo unspecified)	·	14.1%	·	-1.4%
COc1ccc(C(CNC(=O)c2cc3ccccc3cc2OC)N2CCCC2)cc1 (stereo unspecified)	4.0	6.1%	6.3%	-0.5%
CCCSc1nc(O)c(C2OC(=O)c3c2ccc(OC)c3OC)c(=O)n1C (stereo unspecified)	-2.6	-15.9%	-2.6%	?
COc1ccc(C(=O)Nc2ccccc2N2CCN(C(=O)c3ccccc3)CC2)cc1Br	·	?	17.4%	-6.1%
O=C(O)c1ccccc1SCC(=O)N1CCOCC1	3.9	-11.3%	0.8%	-0.2%
Clc1ccc(-c2nnc3sc(Cc4cccs4)nn23)c(Cl)c1	-5.1	-0.2%	-19.1%	1.5%
O=c1[nH]c(NC2CCN(S(=O)(=O)c3ccccc3C(F)(F)F)CC2)nc2c1CCCC2	·	19.4%	14.6%	4.8%
CCN1CCN(c2oc(COc3ccc(Cl)cc3)nc2C#N)CC1	-6.1	-2.0%	-4.6%	-1.5%
O=C(CSc1nnc(-c2cccnc2)n1Cc1ccco1)Nc1cccc(O)c1	·	-16.2%	-4.8%	1.0%
CC(=O)c1cc(-c2ccccc2)[nH]c1N1CCCC1	-10.7	-25.6%	7.0%	?
COc1ccc(NS(=O)(=O)c2ccc3c(c2)CCC(=O)N3)cc1O	·	-5.1%	·	-1.2%
c1ccc(-n2cccc2)c(N2CCCCC2)c1	3.1	4.7%	-7.0%	0.2%
O=C(NCCc1ccccc1)C1CCN(S(=O)(=O)N2CCCC2)CC1	-3.4	-2.1%	-3.9%	1.0%
CCOc1ccc(C(C)NC(=O)c2cccc(F)c2)cc1 (stereo unspecified)	-1.9	0.6%	-7.0%	0.0%
Cc1csc(NC(=O)CCCC(=O)c2ccccc2)n1	·	0.5%	-15.3%	-0.8%
O=C(COC(=O)CNS(=O)(=O)c1ccc(F)c(F)c1F)Nc1ccc(OC(F)F)cc1	7.4	14.0%	-1.2%	-3.0%
O=C(Cn1c2[n+](c3ccc(C(F)(F)F)cc31)CCCCC2)Nc1ccc(Br)cc1	-3.1	12.9%	7.8%	-1.4%
O=C(CN1CCN(Cc2ccc(Cl)cc2)CC1)N/N=C/c1cccc(F)c1	-11.9	17.5%	19.5%	1.0%
CCOc1ccc(N2C(=O)CC(N(CCc3ccc(OC)c(OC)c3)C(=O)/C=C/C(=O)O)C2=O)cc1 (stereo unspecified)	8.1	7.5%	0.7%	-3.3%
Cc1nc2sc3c(c2c(=O)n1/N=C/c1ccco1)CCCC3	1.1	-13.2%	-0.1%	-0.9%
COCc1nnc(NC(=O)C2CC(=O)N(CCc3ccc(F)cc3)C2)s1 (stereo unspecified)	·	10.1%	4.4%	3.7%
CC(=O)NC(=S)Nc1ccccc1C(=O)NC1CCCCC1	0.1	-0.6%	-3.8%	-0.7%
CCCCNC(=O)Cn1nc([N+](=O)[O-])c([N+](=O)[O-])c1C	4.4	0.2%	-7.2%	-0.5%
CC(C)(CN1CCc2ccccc2C1)NS(=O)(=O)c1ccc(Cl)cc1	-18.0	5.3%	-5.7%	-4.3%
CC(C)=C1C2CCC1C1C(=O)N(NC(=O)COc3ccc(C(C)(C)C)cc3)C(=O)C21 (stereo unspecified)	-16.0	0.4%	11.3%	-3.4%
Cc1cccc(OCC(=O)OCC(=O)N2CCN(C(=O)c3ccco3)CC2)c1C	·	0.8%	·	-1.2%
COc1ccc(CCNC(=O)COC(=O)C23CC4CC(CC(Br)(C4)C2)C3)cc1	-5.4	?	18.1%	-0.4%
Cc1cc(C)c(C#N)c(SCC(=O)CC(=O)OC(C)C)n1	3.4	?	-2.6%	?
CC1CCCCC12NC(=O)N(CC(=O)OCC(=O)N(C)C1CCCCC1)C2=O (stereo unspecified)	·	-1.4%	·	1.0%
COc1ccccc1/C=N/NC(=O)CC(=O)NCc1ccccc1	2.8	31.9%	0.4%	1.2%
Cc1cc(C)n(C(C)CC(=O)Nc2ccc3c(c2)OCCO3)n1 (stereo unspecified)	·	-5.0%	-11.9%	?
O=S(=O)(Nc1cccc(S(=O)(=O)N2CCCC2)c1)c1cccs1	·	8.8%	·	0.2%
Cn1c(=O)c(=O)n(C)c2cc(S(=O)(=O)N3CCN(Cc4ccccc4)CC3)ccc21	-1.6	-2.5%	-3.0%	1.6%
CC(=O)N1CCN(S(=O)(=O)c2ccc(Cl)cc2F)CC1	-1.9	1.3%	0.1%	7.4%
Cc1ccc(NC(=S)N2CCC(NC(=O)c3ccc(F)cc3)CC2)cc1	·	11.1%	9.0%	1.7%
C=CCN1CCCC1CNC(=O)c1cc2[nH]nnc2cc1OC (stereo unspecified)	·	16.5%	·	7.0%
CN(CC(=O)Nc1ccc(F)c(F)c1F)C(=O)c1ccc2c(c1)OCCO2	·	-8.0%	·	-3.3%
CC(O)(CS(=O)(=O)c1ccc(Br)cc1)c1ccccc1 (stereo unspecified)	·	3.0%	-2.3%	1.0%
O=C(Cc1ccccc1)NC1CCN(Cc2ccccc2)CC1	-4.1	27.9%	2.1%	-3.0%
O=C(Nc1ccccc1)C(c1ccccc1)C1CCCC1 (stereo unspecified)	-8.8	-6.7%	7.1%	2.6%
CCN(CC)S(=O)(=O)c1ccc(C(=O)Nc2nnc(CSC)o2)cc1	-3.3	2.8%	8.8%	0.6%
Cc1ccc(SCC(=O)OC(C)C(=O)NCc2ccccc2)cc1 (stereo unspecified)	·	0.5%	·	-0.3%

New compounds follow.
SMILES	GLA inh pH 4.5	Rango dissoc inh	miR-21 FLuc	Rango-impB inh
CC1(C)NC(=O)NC2(C)NC(=O)NC(C)(C)C12 (stereo unspecified)	1.9	4.9%	-0.8%	-1.8%
Cc1noc(C)c1CSCC(=O)Nc1nc2ccccc2s1	·	0.0%	-28.0%	?
CCc1ccccc1NC(=S)N(CCN1CCOCC1)Cc1ccccc1F	2.5	-3.7%	-1.7%	-3.7%
N#Cc1ccccc1OCC(=O)N(Cc1nnc(-c2ccccc2Cl)o1)C1CC1	·	-15.9%	·	-0.9%
O=C1CN(C(=O)CNC(=O)c2cccc(Cl)c2)c2ccccc2N1	-1.1	14.9%	-3.5%	-3.1%
COc1cccc(NC(=O)CCNS(=O)(=O)c2ccc3c(c2)oc(=O)n3C)c1	·	-18.2%	0.2%&-1.2%	-0.2%
CCN(CC)CCCC(C)Nc1c2ccc(Cl)cc2nc2ccc(OC)cc12 (stereo unspecified)	-19.3&-19.2&-16.7	·	22.7%	·
CCC(=O)Nc1ccc(NC(=O)c2oc3ccccc3c2C)cc1	·	14.4%	20.0%	-3.6%
CC(=O)Nc1ccc(C(=O)n2cnc3cc(C)c(C)cc32)cc1	-1.6	-6.1%	-4.1%	0.1%
CN1CCN(C(=O)CN2C(=O)CC(C)(C)S(=O)(=O)c3ccccc32)CC1	1.6	11.8%	-0.3%	8.2%
COc1ccc(NC(=O)CSc2nnc3n2CCCCC3)cc1S(=O)(=O)N1CCOCC1	·	-26.8%	·	0.1%
CCC(CC)C(=O)Nc1cccc(S(=O)(=O)c2cccc(NC(=O)C(CC)CC)c2)c1	2.0	1.7%	-1.7%	-1.4%
COc1ccc(C(C(=O)NC2CCCC2)N(C(=O)c2snc(C(N)=O)c2N)C2CCCC2)cc1OC (stereo unspecified)	·	8.4%	-0.4%	-0.3%
Nc1ccc2c(c1)C(=O)c1cc(N)c(Cl)cc1-2	·	-0.5%	·	-2.1%
CC1(C)Cc2c(cnn2-c2cccc(F)c2)C(NC(=O)c2ccc(=O)[nH]n2)C1 (stereo unspecified)	·	-8.9%	-3.6%	0.9%

3 compounds from above, arranged by the value under miR-21 FLuc, highest first:
smiles | miR-21 FLuc
CCN(CC)CCCC(C)Nc1c2ccc(Cl)cc2nc2ccc(OC)cc12 (stereo unspecified) | 22.7%
O=C1CN(C(=O)CNC(=O)c2cccc(Cl)c2)c2ccccc2N1 | -3.5%
CC(=O)NC(=S)Nc1ccccc1C(=O)NC1CCCCC1 | -3.8%

(cont.)
SMILES	GLA inh pH 4.5	Rango dissoc inh	miR-21 FLuc	Rango-impB inh
COc1ccc(NC(=O)c2ccc(=O)oc2)cc1	8.8	8.7%	-7.6%	-3.5%
CCOC(=O)NC(c1cccc(Cl)c1)C1CCCCCC1=O (stereo unspecified)	0.7	-2.5%	-0.1%	0.2%
O=C(Nc1nnc(-c2ccccc2Cl)s1)C1CCN(S(=O)(=O)c2ccc(Cl)cc2)CC1	-12.6	?	-12.2%	-1.3%
COc1ccccc1-c1nc(SCC(=O)Nc2ccccc2)n[nH]1	·	4.9%	2.3%	-0.1%
CC1(c2ccccc2)CC(C)(C)N(C(=O)c2cc([N+](=O)[O-])cc([N+](=O)[O-])c2)c2ccccc21 (stereo unspecified)	1.6	-11.0%	1.2%	-0.4%
C=CCN1C(=O)c2ccc(C(=O)N(C)CC(=O)Nc3c(C)cccc3C)cc2C1=O	·	-2.2%	·	-3.0%
CCOC(=O)c1c(N)sc2c1CCSC2	2.9	0.9%	-1.2%	3.5%
CCOC(=O)C1(CCCc2ccccc2)CCN(C(=O)C2=C(C)OCCO2)CC1	-6.2	4.0%	6.0%	0.0%
O=c1nc2sc3ccccc3n2c(=O)n1-c1cccc(Cl)c1	2.0	15.8%	-40.3%	-0.2%
CC(=O)Nn1cnc2c(c1=O)C1(CCCC1)Cc1ccccc1-2	4.3	-2.3%	-2.3%	0.2%
Cc1ccccc1NC(=O)c1cc2c(=O)n3cccc(C)c3nc2s1	·	?	-9.7%	-0.2%
OC(CNCCN1CCNCC1)Cc1ccccc1 (stereo unspecified)	·	7.5%	·	0.4%
COc1ccc(/C=N/NC(=O)Nc2nonc2N)cc1	-10.6	1.8%	-56.4%	-0.3%
O=C1N(Cc2cccnc2)C[C@@H]2C[C@@H](c3ccc4nonc4c3)N3CCC[C@@]123	-2.2	-8.0%	3.8%	0.1%
CCC(=O)c1ccc(OC(=O)c2ccc(Br)o2)cc1	·	12.6%	·	-4.0%
